Source: PubChem BioAssay (National Center for Advancing Translational Sciences (NCATS))
HPGD inh: HPGD (human) dehydrogenase inhibition | P15428 | purified HPGD, NADH fluorescence kinetic, PGE2 substrate | Potency, µM, for the others: at the highest dose activity change, negative = inhibition, actives largely listed as inhibitors | 150,000 tested, 4.3% active | AID 894; active = well fitted inhibition curve with a large enough effect (not every such curve was filed as active); inconclusive = small, poorly fitted or top-dose-only effect, or another doubt; inactive = no such curve, though single readings can be large or run the other way;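 note: top concentration of the series not given in the record; plate controls included wells without enzyme; inactives centre near -10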
Target sequence (P15428 whole entry, looked up): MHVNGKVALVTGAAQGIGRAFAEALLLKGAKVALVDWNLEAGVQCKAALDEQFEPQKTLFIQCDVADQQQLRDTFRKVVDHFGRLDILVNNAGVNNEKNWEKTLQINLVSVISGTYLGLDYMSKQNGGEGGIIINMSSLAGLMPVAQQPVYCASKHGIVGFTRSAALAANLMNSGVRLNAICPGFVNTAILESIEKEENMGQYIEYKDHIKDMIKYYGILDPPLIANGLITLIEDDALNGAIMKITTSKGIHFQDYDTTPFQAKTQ
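20 nM HPGD preincubated 15 min at room temperature with compound in 50 mM Tris-HCl pH 8, 0.01% Tween 20. Started with 1 mM NAD+ and 30 uM prostaglandin E2; NADH fluorescence (360/450 nm) read 5 times over 30-s intervals, last minus first.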
An asterisk follows results filed as active; ? = inconclusive; & = joins results of further samples. % is set by controls: 0 for no effect and ±100 for the full control effect; potency is the fitted concentration of half-maximal effect.

SMILES	HPGD inh
Nc1c(S(=O)(=O)c2ccccc2)c2nc3ccccc3nc2n1Cc1ccco1	?
CCc1c(C)nc2ncnn2c1N1CCC(C(=O)N2CCN(c3ccc(F)cc3)CC2)CC1	-13%
COc1ccc2cc(C(C)c3nc4ccccc4c(=O)n3N)ccc2c1 (configuration not stated)	-9%
CN(C)CCC(=O)[C@@]1(O)CC[C@H]2[C@H]3CC=C4C[C@@H](O)CC[C@]4(C)[C@H]3CC[C@]21C	-11%
CCCCC1CC(CSc2ncn[nH]2)OC1=O (configuration not stated)	-5%
Cc1ccc(Nc2nc(CSc3nnc(-c4ccncc4)n3-c3ccccc3C)cs2)cc1	-6%
CCCNCc1cc(OCC)c(OCC(N)=O)cc1Br	-7%
COc1ccccc1N1CCN(C(=O)CC2NC3CCCCC3NC2=O)CC1 (configuration not stated)	0%
N#CC1=C(N)N(c2ncn[nH]2)C2=C(C(=O)CCC2)C1c1ccc(F)cc1 (configuration not stated)	-14%
Cc1cc(OI)c(C(C)C)cc1-c1cc(C(C)C)c(OI)cc1C	-15%
Cc1ccc(-n2nc3c(c2NC(=O)c2ccc(OC(C)C)cc2)CS(=O)C3)cc1 (configuration not stated)	-3%
Fc1ccccc1/C=C1\CCCC2=C1Nc1nnnn1C2c1ccccc1F (configuration not stated)	-4%
Cc1cc(C)cc(NC(=O)CSc2nc3ccncc3[nH]2)c1	-27%
Cn1nnnc1-c1cc(Br)ccc1NC(=O)c1ccccc1	-23%
Cc1ccc(OCC(=O)Nc2cccc(O)c2)cc1C	-12%
COc1cc2c(cc1NC(=O)C(C)OC(=O)/C=C/c1ccc(OC(F)F)cc1)oc1ccccc12 (configuration not stated)	?
Cc1ccc(CS(=O)(=O)CCC(=O)NCc2ccccn2)cc1	-5%
Oc1cc2c(cc1O)C(c1ccccc1)CNCC2 (configuration not stated)	?
CCn1c(/C=C2\C(=O)Nc3ccccc32)nc2ccccc2c1=O	-17%
Cc1c2oc3c(C)ccc(C(=O)N[C@@H]4C(=O)N[C@H](C(C)C)C(=O)N5CCC[C@H]5C(=O)N(C)CC(=O)N(C)[C@@H](C(C)C)C(=O)O[C@@H]4C)c3nc-2c(C(=O)N[C@@H]2C(=O)N[C@H](C(C)C)C(=O)N3CCC[C@H]3C(=O)N(C)CC(=O)N(C)[C@@H](C(C)C)C(=O)O[C@@H]2C)c(N)c1=O	-24%&-24%
O=S(=O)(Nc1nc2ccccc2nc1Nc1ccc2c(c1)OCCO2)c1cccs1	-15%
Cc1nn(Cc2ccc(Cl)cc2Cl)c(C)c1NC(=O)c1nn(C)cc1Cl	-6%
COc1ccccc1C1CC(c2ccc(Cl)cc2Cl)Nc2nc(N)nn21 (configuration not stated)	-8%
CC1=C(C(=O)OCCOC(C)C)C(c2cc3c(cc2Br)OCO3)C2=C(CCCC2=O)N1 (configuration not stated)	?
CC(=O)NC1=NN(C(C)=O)C(c2ccc(C(C)C)cc2)S1 (configuration not stated)	-6%
COc1ccc(N2CCN(C(c3cccc(OC)c3OC)c3nnnn3C3CCCC3)CC2)cc1 (configuration not stated)	-15%
CCOP(=O)(OCC)C(NC(=O)Nc1ccc(Cl)c(Cl)c1)C(N)=O (configuration not stated)	-5%
O=C(CC1N=C2c3ccccc3N=C(SCc3ccc(F)cc3)N2C1=O)NCc1ccco1 (configuration not stated)	?
COc1cc(/C=C2/C(=O)ON=C2c2ccccc2)ccc1O	11µM*
C[n+]1cccc(C(=O)[O-])c1	-4%
Cc1nc(NC2=NC(C(=O)Nc3ccc(Cl)cc3)CC(=O)N2)nc2ccccc12 (configuration not stated)	-4%
C1CN=C(NC23CC4CC(CC(C4)C2)C3)C1	-3%
CCOc1ccc(C(=O)Nc2ccc(N3CCCC3)cc2)cc1	0%
CN=C(Nc1ccc(Cl)cc1)c1cccc(C(F)(F)F)c1	-10%
CCCCCc1ccc(CC(=O)Nn2c(C)nc3ccccc3c2=O)cc1	-3%
CC(O)Cn1cnc2c1c(=O)n(C)c(=O)n2C (configuration not stated)	0%
COc1ccc(C(C)(C)C)cc1S(=O)(=O)N1CCN(C)CC1	-8%
CCCCC(=O)OCC(=O)Nc1ccc(OC(F)F)cc1	-6%
Cc1sc2nc(SCC(=O)c3cccs3)n(Cc3ccco3)c(=O)c2c1C	-9%
O=[N+]([O-])c1cnc2ccccc2c1	-1%
COCCn1c(=O)c(-c2cccs2)nc2cnc(OCc3ccccc3)nc21	?
O=C(Nc1ccc(N2CCCC2)c(Cl)c1)c1ccccc1[N+](=O)[O-]	-24%
COc1ccc(-n2nnnc2SCC(=O)Nc2cccc(NC(C)=O)c2)cc1OC	?
Nn1c(SCc2ccccc2)nnc1-c1ccccn1	-9%
CCO[P@]1(=O)OC[C@@H]2O[C@H](n3cnc4c(N)ncnc43)[C@H](O)[C@@H]2O1	-3%
CCC(C)(C)n1nnnc1CN1CCN(c2nc3ccc(C)cc3cc2C#N)CC1	-17%
CC(=O)N1C=CN(C(C)=O)C(c2cn(C)c3ccccc23)C1c1cn(C)c2ccccc12 (configuration not stated)	-4%
CCN(CC)CCCN1C(=O)C(=O)/C(=C(/O)c2cc(C)ccc2C)C1c1cccnc1 (configuration not stated)	-4%
Cc1cccc(-c2noc(-c3ccccc3C(=O)NCC3CCCO3)n2)c1 (configuration not stated)	-8%
CSc1ccc(Cl)c(C(=O)OCC(=O)N2CCOCC2)c1	-16%

Reformatted bar-delimited: 2 of the compounds above.
canonical_smiles | HPGD inh
CCO[P@]1(=O)OC[C@@H]2O[C@H](n3cnc4c(N)ncnc43)[C@H](O)[C@@H]2O1 | -3%
CCC(C)(C)n1nnnc1CN1CCN(c2nc3ccc(C)cc3cc2C#N)CC1 | -17%

Other results:
SMILES	HPGD inh
Cc1c(N=C2SCC(=O)N2c2c(C)n(C)n(-c3ccccc3)c2=O)c(=O)n(-c2ccccc2)n1C	-2%
CCOC(=O)C1CCN(CC(=O)Nc2c(C(=O)OC)[nH]c3cccc(Cl)c23)CC1	-10%
O=C(COC(=O)CCS(=O)(=O)c1ccc(Cl)cc1)Nc1ncc(Cl)cc1Cl	-14%
Cn1c(=O)c2c(nc(CN3CCN(c4ccccc4F)CC3)n2CCN2CCOCC2)n(C)c1=O	-9%
Cc1[nH]c2ccccc2c1C(=O)CN1CCCCC1CCO (configuration not stated)	-11%
COc1c(C)cc(S(=O)(=O)N2CCCC2)c(C)c1C	-5%
CC1=NN(C(=O)c2ccc(C)o2)C(O)(c2ccccc2)C1 (configuration not stated)	-10%
CCN(Cc1cc2ccccc2[nH]c1=O)C(=O)C(C)C	-12%
CCOC(=O)c1cc(C(O)(C(F)(F)F)C(F)(F)F)c(/N=C/N(C)C)o1	-15%
O=C(O)C1CC(=O)N(Cc2ccc(F)cc2)C1 (configuration not stated)	-15%
CCn1c(SCC(=O)OC2CCCCC2)nnc1-c1ccncc1	-26%
C[C@@H]1Oc2ccc(C(=O)C[C@@H](C(=O)O)c3ccc4c(c3)OCO4)cc2O1	-1%
C=CCOC(=O)C1=C(C)NC(SCC)=C(C#N)C1c1ccc(Cl)cc1 (configuration not stated)	-27%
CC(Cc1cccs1)NC(=S)Nc1ccccc1 (configuration not stated)	-19%
Nc1nc2ccc(Cl)cc2c2nc(-c3ccco3)nn12	-19%&-13%
CCCN(CCC)C(=O)C[n+]1cccc(/C=N/O)c1	1%
COCCN(CC(=O)NCc1ccc(F)cc1)C(=O)CCC(=O)Nc1ccccn1	-7%
COc1cccc(C(=O)NN2C(=O)C3C4C=CC(O4)C3C2=O)c1 (configuration not stated)	2%
COCCNC(=O)CN1C(=O)CC(C)(C)S(=O)(=O)c2ccccc21	-3%
O=C(NCc1ccc2[nH]c3c(c2c1)CCCC3)c1ccc(S(=O)(=O)N2CCCCC2)cc1	-4%
COc1cccc(C(=O)COC(=O)C(C)N2C(=O)C3C4C=CC(C4)C3C2=O)c1 (configuration not stated)	-16%
COc1ccc(-c2cn3c(C)c(C(=O)Nc4cc(NC(C)=O)ccc4OC)sc3n2)cc1	?
O=C1NS(=O)(=O)c2ccccc21	-10%
Cn1c(Cn2c(=O)sc3ccccc32)nnc1SCC(=O)N1CCCc2ccccc21	-10%
COc1ccc(OC)c(NC(=O)COC(=O)c2ccc(S(=O)(=O)N3CCOCC3)cc2)c1	-5%
CS(=O)(=O)Nc1cccc(-c2nc(NCc3cccnc3)c3ccccc3n2)c1	-15%
CSCSC1=C(C#N)C(c2ccc(Cl)cc2)C(C(C)=O)=C(C)N1 (configuration not stated)	32µM*
N#Cc1c2c(c[nH]c1=O)CCN2Cc1ccccc1	?
Cc1cc(SC(C)C(=O)NCC(=O)Nc2ccc(F)c(F)c2F)nc2ccccc12 (configuration not stated)	-7%
CCOC(=O)Cn1c(=O)oc2cc(S(=O)(=O)Nc3cc(Cl)ccc3OC)ccc21	-18%
O=C1CCCN1CCC1CCN(C2CC(=O)N(Cc3ccc(N4CCCC4=O)cc3)C2=O)CC1 (configuration not stated)	5%
Cc1cc(=O)oc2c(CN(C)Cc3ccccc3)c(O)ccc12	?
Cc1ccc2nc(N/N=C\c3ccc([N+](=O)[O-])o3)nc(-c3ccccc3)c2c1	-6%
O=C(NCCO)/C(=C/c1ccc(Br)cc1)NC(=O)c1cccs1	0%
CCOC(=O)c1c(N)nn(C(C)=O)c1-c1ccccc1	-3%
CN(C)/C=C(\C=N\OCc1ccc(Cl)cc1Cl)C(=O)Nc1ccc(Cl)c(Cl)c1	-5%
CC(NC(=O)c1ccc([N+](=O)[O-])cc1[N+](=O)[O-])c1ccc(-c2ccccc2)cc1 (configuration not stated)	-7%
CC1=CC(C)(C)Nc2ccc(OS(=O)(=O)c3ccc(C)cc3)cc21	?
COc1ccc(CCNS(=O)(=O)c2ccc(S(=O)(=O)N3CCCC3)cc2)cc1OC	4%
CCn1c(SCc2ccccc2)nnc1-c1ccc(S(=O)(=O)N2CCCCC2)cc1	-19%
S=c1[nH]nc(-c2ccncc2)n1Cc1ccco1	-11%
COc1ccc(S(=O)(=O)N2CCCCC2)cc1NC(=O)c1ccc2ccccc2n1	-11%
Cc1nc(=O)c(-c2ccccc2)c(C)n1-c1ccc(O)c(C(=O)O)c1	?
COC(=O)c1sc2nc3c(cc2c1N)C(=O)CC(C)(C)C3	-1%
O=C(/C=C/c1ccc2c(c1)OCO2)Nc1nc(-c2ccc(F)cc2F)cs1	28%
NCCC[C@@H](CC(=O)N[C@@H]1CCNC[C@H]1C(=O)N[C@H](CC(=O)N[C@@H](CCC(=O)O)CC(=O)O)Cc1c[nH]c2ccccc12)NC(=O)C[C@H](Cc1c[nH]c2ccccc12)NC(=O)[C@@H]1CCCC[C@H]1N	-7%
CC(O)[C@@H](O)[C@H]1CNc2nc(N)[nH]c(=O)c2N1 (some centres not stated)	?
O=C(O)CC(C(=O)NCc1ccccc1)C1CCCO1 (configuration not stated)	-15%
Cc1nc(-c2ccccc2)sc1C(=O)/C=C/c1ccc(Cl)cc1	-11%
CCCCN1C(=O)CC(Nc2ccc(CC)cc2)C1=O (configuration not stated)	-2%

Next part:
SMILES	HPGD inh
Cc1cc(C)c(NC(=O)CCCN2CCN(C)CC2)c(C)c1	-4%
COc1ccc(CCNC(=O)CC(NS(=O)(=O)c2ccc(NC(C)=O)cc2)C(C)C)cc1OC (configuration not stated)	-3%
COc1ccc2c(CC(=O)Nc3ccc(OC)c(S(=O)(=O)N4CCOCC4)c3)coc2c1	-14%
COC(=O)Cc1cc(OC)c(OC)cc1Cc1cc(OC)c(OC)cc1CC(=O)OC	-7%
Brc1ccc(C=Nc2ccc(Nc3ccccc3)cc2)s1	-21%
CC(C)c1[nH]c(=O)c(C#N)c2c1COC(C)(C)C2	-30%
O=C(NNC1=NCCC1)c1cccc(Br)c1	-12%
OCCNc1ncnc2c1ncn2Cc1ccccc1	-9%
Cc1ccc(C(=O)NC(=S)Nc2ccccc2C(F)(F)F)c(C)c1	-15%
O=Cc1ccsc1B(O)O	-5%
CCOc1ccc(C(=O)CCc2nc3ccccc3s2)cc1	-15%
Cc1ccc(CNC(=O)[C@@H]2C[C@H]2[C@@H](NP(=O)(c2ccccc2)c2ccccc2)c2ccccc2)o1	-14%
Cc1[nH]n2c(=O)c(C#N)c(-c3ccccc3)nc2c1-c1ccccc1	-14%
CC[N+](C)(CC)CCN1C(=O)c2ccccc2S1(=O)=O	-3%
CC(=O)Nc1cccc(NC(=O)CSc2ccc(C(F)(F)F)cc2[N+](=O)[O-])c1	?
N#CC(C#N)=Cc1cn(-c2ncc(C(F)(F)F)cc2Cl)c2ccccc12	-7%
CC(C)Cc1nc2oc3c(Cl)ncnc3c2c2c1CCC2	-18%
O=c1c(-c2ccc(Cl)cc2)nc2cncnc2n1Cc1ccc(F)cc1	0%

14 entries already listed, arranged by formula weight, ascending:
SMILES	HPGD inh
O=Cc1ccsc1B(O)O	-5%
CC(C)c1[nH]c(=O)c(C#N)c2c1COC(C)(C)C2	-30%
OCCNc1ncnc2c1ncn2Cc1ccccc1	-9%
CC[N+](C)(CC)CCN1C(=O)c2ccccc2S1(=O)=O	-3%
CC(C)Cc1nc2oc3c(Cl)ncnc3c2c2c1CCC2	-18%
CCOc1ccc(C(=O)CCc2nc3ccccc3s2)cc1	-15%
Cc1[nH]n2c(=O)c(C#N)c(-c3ccccc3)nc2c1-c1ccccc1	-14%
Brc1ccc(C=Nc2ccc(Nc3ccccc3)cc2)s1	-21%
O=c1c(-c2ccc(Cl)cc2)nc2cncnc2n1Cc1ccc(F)cc1	0%
N#CC(C#N)=Cc1cn(-c2ncc(C(F)(F)F)cc2Cl)c2ccccc12	-7%
CC(=O)Nc1cccc(NC(=O)CSc2ccc(C(F)(F)F)cc2[N+](=O)[O-])c1	?
COc1ccc2c(CC(=O)Nc3ccc(OC)c(S(=O)(=O)N4CCOCC4)c3)coc2c1	-14%
Cc1ccc(CNC(=O)[C@@H]2C[C@H]2[C@@H](NP(=O)(c2ccccc2)c2ccccc2)c2ccccc2)o1	-14%
COc1ccc(CCNC(=O)CC(NS(=O)(=O)c2ccc(NC(C)=O)cc2)C(C)C)cc1OC (configuration not stated)	-3%

Some of the compounds tested; count on the stated rates, not on these rows.
